# Autofluor counter = counter-screen for toxin protease inhibitors: compound fluorescence. 360,000 tested, 3.1% active. fluorescence intensity (no concentration beside the values). compound autofluorescence counterscreen, microsphere flow cytometry; hits give high values. AID 624483;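 active means at least 3 SD above the mean of all compounds, about 16000 in these data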;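 further: 100 nL of 1 mM stock went into each well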
# ugtP null kill = growth inhibition of ugtP-null S. aureus, primary screen, RN4220 ugtP deletion, OD600; AID 1259309, 2017; 330,000 tested, 0.54% active; growth inhibition, % (concentration not given with the values); 16 h; some inactives read as strong as hits;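 active means z-score under -3 and OD600 up to 0.15 on both plates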;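 further: plate controls were untreated wells for no effect and antibiotic for full effect; wells of about 80 µL received 100 nL stock; the first replicate is given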
# BJeLR viability = MLPCN primary cell-based screen for lethality selective to Ras in HRASV12 cells; BJeLR (HRASV12) viability, CellTiter-Glo ATP luminescence, 48 h; reference of the scale not given here; inhibition, % (concentration not given with the values); 300,000 tested, 0.17% active; AID 1554, 2009;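 active means replicate mean above 50%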;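 further: 50 nL library stock added to about 25 µL; numbers are from one replicate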
# Mtb hypoxia rep = PubChem AID 1159583; M. tuberculosis hypoxia-regulated fluorescent reporter, fluorescence; fluorescence inhibition, % (no concentration beside the values); 300,000 tested, 0.1% active;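 active means 35 to 45% if threefold the growth effect, above 45% if 1.5-fold the growth effect; inactive means the rest, general growth blockers included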;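 further: wells of about 50 µL received 100 nL stock; 0% = vehicle wells and 100% = reference inhibitor wells; whole bacteria with a GFP reporter of the hypoxia response; strong numbers were not always called active; many hits fall short of the cut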
# PrP UTR inh = inhibition of PrP 5' UTR reporter expression | cell-based PrP 5' UTR mRNA reporter, plate reader | inhibition, % (no concentration beside the values) | 340,000 tested, 0.35% active | AID 488862, 2010;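 active means every replicate at 50% or more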;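 further: 0 = median of the neutral control wells; tested in H4 reporter cells; numbers are from one replicate; inactives centre near -14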
# Sa RN4220 lethal = growth inhibition of S. aureus RN4220, primary screen, OD600. 16 h. inhibition, % (no concentration beside the values). 330,000 tested, 0.33% active;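 active means z-score of -3 or lower and OD600 up to 0.18 on both plates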;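 further: plate controls were untreated cells for no effect and reference antibiotic for full effect; stock transfer was 100 nL into about 80 µL; one replicate is shown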
# Mtb hypoxia rep growth = further read-out of Mtb hypoxia rep, marked with its call; growth inhibition, %; measured here: M. tuberculosis growth (absorbance);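 0% = vehicle and 100% = reference antibiotic; read after six days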
# * = called active by the depositor; . = no result given.
SMILES,Autofluor counter,ugtP null kill,BJeLR viability,Mtb hypoxia rep,Mtb hypoxia rep growth,PrP UTR inh,Sa RN4220 lethal
COc1ccc(C2=NN(C(C#N)c3ccc(OC)cc3)C(c3ccccc3)C2)cc1 (configuration not stated),8909,39,-3,6,5,-36,2.2
CC1(C)CNC(=O)c2sc(NC(=O)c3ccccc3)nc2C1,4434,-5,6,5,0,-46,2.8
COc1cc(OC)c(OC)cc1CN(C)CC1CCCN(CCc2ccccc2F)C1 (configuration not stated),.,7,2,3,-4,-5,2.3
COc1ccccc1CNC(=O)CN1C(=O)NC(c2ccccc2)(c2ccccc2)C1=O,3517,6,.,9,14,-14,4.2
CCOC(=O)Nc1ccc(C(=O)/C=C/c2ccccc2)cc1,4303,3,7,8,1,-33,4.8
C[C@H](CO)N1C[C@H](C)[C@@H](CN(C)Cc2ccccc2)Oc2c(NS(=O)(=O)c3ccccc3)cccc2C1=O,3752,-7,.,-5,2,-9,-5.9
Cc1ccc2nsnc2c1S(=O)(=O)N(CCO)Cc1cc2cc3c(cc2[nH]c1=O)OCCO3,6744,8,-1,8,-3,-19,4.3
Cc1c(C(=O)O)oc2c1C(=O)CC(C)(C)C2,2445,-3,2,-5,7,-26,3.6
CSCCC(NC(=O)COc1ccccc1)C(=O)OCCOc1ccc(C)cc1 (configuration not stated),3289,-5,.,9,8,-13,5.8
CCC(CC)C(=O)Nc1cccc(C(=O)N2CCCC2)c1,9326,5,-1,8,1,-28,2.6
S=c1[nH]nc2nnc3ccccc3n12,3422,0,-4,4,12,-9,3.3
Cc1occc1C(=O)Nc1ccccc1C(=O)O,2579,-7,4,10,9,-19,8.9
O=C(CN1C(=O)NC(CCc2ccccc2)C1=O)Nc1ccccc1C(F)(F)F (configuration not stated),4164,6,.,7,-2,-1,4.1
COc1ccc(CCNc2cc(C)nc(N)n2)cc1OC,3384,12,8,6,-7,.,5.5
Clc1ccc(CNc2nc(CN3CCOCC3)nc3scc(-c4ccccc4)c23)cc1,2572,-19,-3,-6,-1,-16,-2.8
CNC(=O)C1CC(=O)N(CCc2ccc(C)cc2)C1 (configuration not stated),4043,-2,1,-8,4,-3,-1.2
Cc1cc(C)c(C(=O)Nc2cccc(F)c2)c(Cl)n1,5335,3,-8,15,5,-29,-0.7
O=C(N=C1SC2CS(=O)(=O)CC2N1c1ccc(Cl)cc1)C1CCCO1 (configuration not stated),6154,2,8,4,1,-4,0.9
COc1ccccc1-n1c(SCC(=O)O)nc2c(sc(=S)n2-c2ccc(Cl)c(C)c2)c1=O,3613,29,-7,2,3,10,11
CCn1c(CCNC(=O)c2cccs2)nnc1SCC(=O)Nc1cccc(Cl)c1,6315,-2,2,2,12,-5,-3.2
O=C(Nc1c(C(=O)N2CCCC2)cnn1-c1ccccc1)c1cccc(F)c1,21118*,4,-8,9,15,-9,3.8
CSCC[C@H](N)C(=O)NCC1CCC(C(=O)N[C@@H](Cc2ccccc2)C(=O)O)CC1 (some centres not stated),.,8,.,-3,3,.,2.9
CN(C)S(=O)(=O)c1ccc2c(c1)c(=O)c(C(=O)N1CCN(c3ccccn3)CC1)cn2C,6280,1,-12,.,.,-10,0.2
Cc1nc(NC(=O)CCC(=O)O)sc1C(=O)N(C)C,.,-7,9,4,7,0,4.4
CNC(=S)NC1CC2CCC(C1)N2Cc1ccccc1 (configuration not stated),7007,9,2,-6,-6,-23,5.2
CCOC(=O)c1c(NC(=O)CSc2nnnn2-c2ccccc2)sc2c1CCC(C)C2 (configuration not stated),2606,-4,-7,.,.,-45,-5.8
COC(=O)c1ccccc1NC(=O)CSCC(=O)Nc1ccccc1,4538,8,-1,-2,-4,11,5.3
CC(=O)Nc1ccc(C(=O)OCC(=O)Nc2c(C)n(C)n(-c3ccccc3)c2=O)cc1,2919,14,.,-2,-1,-7,5.2
O=C(NN=Cc1ccccc1)c1n[nH]c2c1CCCC2,.,1,.,8,5,.,4.9
C/C(=C\c1ccccc1)CN1CCN(C)CC1,4300,13,2,3,3,-15,4.6
N#Cc1cccc(C(=O)Nc2ccccc2C(=O)NC2CC2)c1,6809,-4,.,6,-3,5,1.1
COCCn1c(CN2CCN(c3cccc(Cl)c3)CC2)nc2c1c(=O)n(C)c(=O)n2C,5939,-4,8,-1,2,-12,5.6
CCCc1cc(=O)[nH]c(SCC(=O)Nc2ccc(C)cc2)n1,4547,.,0,.,.,-12,.
Cc1c(C(=O)NNC(=O)c2cccnc2)cccc1[N+](=O)[O-],6289,-1,.,5,-8,-25,20
Cc1ccc(S(=O)(=O)NCCC(=O)NCCc2ccccc2)cc1,.,7,.,5,-2,-26,1.9
O=C1C=C(c2ccc(-c3ccccc3)cc2)CC(c2ccc3c(c2)OCO3)C1 (configuration not stated),.,3,.,17,9,.,5.4
O=C(/C=C/c1ccccc1F)c1ccoc1,2895,-7,16,14,13,-22,0.5
O=C(CSc1cn(CCNC(=O)c2c(F)cccc2F)c2ccccc12)NCC1CCCO1 (configuration not stated),5614,4,-1,2,-7,-7,4.8
CCCCC12CN3CCN(CC(C3)C1=NNC(=O)c1ccccc1N)C2,.,0,.,4,7,.,7.6
COc1ccc(NC(=O)C(c2ccc(OC)cc2)N(C)C(=O)c2cnccn2)cc1 (configuration not stated),3263,-1,0,.,.,-7,6.0

# Rewritten with tabs: 7 of the compounds above.
molecule	Autofluor counter	ugtP null kill	BJeLR viability	Mtb hypoxia rep	Mtb hypoxia rep growth	PrP UTR inh	Sa RN4220 lethal
O=C(Nc1c(C(=O)N2CCCC2)cnn1-c1ccccc1)c1cccc(F)c1	21118*	4	-8	9	15	-9	3.8
CSCC[C@H](N)C(=O)NCC1CCC(C(=O)N[C@@H](Cc2ccccc2)C(=O)O)CC1 (some centres not stated)	.	8	.	-3	3	.	2.9
CN(C)S(=O)(=O)c1ccc2c(c1)c(=O)c(C(=O)N1CCN(c3ccccn3)CC1)cn2C	6280	1	-12	.	.	-10	0.2
Cc1nc(NC(=O)CCC(=O)O)sc1C(=O)N(C)C	.	-7	9	4	7	0	4.4
CNC(=S)NC1CC2CCC(C1)N2Cc1ccccc1 (configuration not stated)	7007	9	2	-6	-6	-23	5.2
CCOC(=O)c1c(NC(=O)CSc2nnnn2-c2ccccc2)sc2c1CCC(C)C2 (configuration not stated)	2606	-4	-7	.	.	-45	-5.8
COC(=O)c1ccccc1NC(=O)CSCC(=O)Nc1ccccc1	4538	8	-1	-2	-4	11	5.3

# Continuation.
SMILES,Autofluor counter,ugtP null kill,BJeLR viability,Mtb hypoxia rep,Mtb hypoxia rep growth,PrP UTR inh,Sa RN4220 lethal
CCCCCOc1ccc(C(C)(O)C(CN2CCOCC2)c2ccccc2)cc1 (configuration not stated),3950,27,1,1,5,-13,6.4
O=S(=O)(NCc1cc(-c2ccccc2Cl)no1)c1ccc(Cl)cc1,7136,-9,-7,2,3,-16,4.8
CC(C)(C)C1CCc2nc(NC(=O)Cc3cn4ccsc4n3)sc2C1 (configuration not stated),3117,-9,3,14,4,-45,-21
COC(=O)c1[nH]c2ccc(Br)cc2c1NC(=O)CN1CCCc2ccccc21,5029,-29,-11,.,.,-8,-5.4
CCCNC(=O)C(Cc1cccc(Br)c1)NC(=O)c1ccc(C#N)cc1 (configuration not stated),4001,6,.,16,10,-10,6.2
COc1ccc(OC)c(CNC(=O)CCc2cn(C)c3ccccc23)c1,3343,-2,-9,0,-3,-11,0.0
Cn1nc(-c2ccccc2)cc1NC(=O)Nc1ccccc1F,.,6,-3,10,14,-31,1.7
Cn1cc(C=O)c2cc(F)ccc21,3986,3,-1,12,12,-11,-2.3
CNC(=S)N/N=C/c1cn(Cc2ccc(C)cc2)c2ccccc12,7702,.,15,.,.,-9,.
O=C(CSc1ncc(C(=O)O)n1-c1ccc(F)cc1)NCc1ccc2c(c1)OCO2,3315,2,3,-3,-6,-19,6.1
CSc1ccccc1NC(=O)COC(=O)c1ccc(O)cc1,3844,5,1,7,12,-13,3.5
Cc1ccc2cc3c(NC(=O)c4cccnc4)nn(C)c3nc2c1,2476,-7,4,.,.,-21,-3.0
Cc1ccc(Sc2ccc(C(=O)N(C)C)cc2[N+](=O)[O-])cc1,3298,-11,0,0,7,6,0.3
CC(C)(C)NC(=O)C(c1ccncc1)N(C(=O)Cn1nnc(-c2ccc(F)cc2)n1)c1ccccc1 (configuration not stated),5612,-1,-6,0,5,-13,1.5
O=C(O)CCCCC1SCC2NC(=O)NC21 (configuration not stated),1529,.,1,.,.,0,.
COc1cccc(CNCc2ccccc2OC)c1,4021,5,6,-6,-12,-16,3.1
CCOC(=O)C(=O)N1CCN(CC)CC1,2457,3,-4,-3,-1,-3,1.4
COc1ccc(C(=O)NN=Cc2ccc(OC(=O)c3cccc4ccccc34)c([N+](=O)[O-])c2)cc1,.,97*,.,8,6,.,95*
CCCc1cc(=O)[nH]c(SCC(=O)c2ccc(S(=O)(=O)N3CCCC3)cc2)n1,4395,-1,1,-3,1,-5,1.7
Cc1ccccc1NC(=O)c1ccc2c(c1)CCN2S(C)(=O)=O,3375,7,-1,6,-2,-18,4.5
C=C(C)c1ccc(C(C)(C)NC(=O)N2CCN(C)CC2)cc1,2108,10,2,.,.,-18,2.1
CCC(C)NC(=O)c1cc2cc3ccc(OC)cc3nc2o1 (configuration not stated),5775,4,-1,12,7,-22,2.8
COC(=O)CN1C(c2ccc(Cl)cc2)=Nc2ccc(Cl)cc2C1c1ccccc1 (configuration not stated),2137,11,-7,2,-2,-10,-14
O=C(NCc1ccccn1)c1cn(Cc2ccccc2)nn1,3646,5,2,.,.,-20,1.9
O=C(Nc1ccc(N2CCOCC2)cc1)c1cc(F)c(F)cc1Cl,2323,4,-1,1,0,-19,10
Cc1ccc(S(=O)(=O)N2CCN(C)CC2)cc1C,3224,6,33,9,1,-10,2.8
CCCCCC1CCC(c2ccc(/C(N)=N/O)cc2)CC1 (configuration not stated),3707,100*,-7,3,9,-18,-5.3
CCc1ccc(NC(=O)N(Cc2cccnc2)Cc2ccco2)cc1,7775,7,0,4,1,-19,3.1
Nc1nnc(SCC(=O)N2CCN(c3ccccc3)CC2)s1,3607,-1,1,3,6,-22,6.9
O=C(c1cccs1)N(CCO)Cc1cc2cc3c(cc2[nH]c1=O)OCCO3,.,-12,6,1,14,.,-9.2
Fc1ccc(-c2csc(NC3=NCCC3)n2)cc1,3882,9,1,-10,-5,-47,-2.3
CN(Cc1cccnc1)C(=O)CC1C(=O)NCCN1CC(c1ccccc1)c1ccccc1 (configuration not stated),2717,-8,-4,-4,-2,-38,-1.3
Cc1ccc(-c2ccc(CCC(=O)O)o2)cc1,8303,7,2,4,2,.,4.9
CCCn1cc(CN2CCC(n3nccc3NC(=O)c3ccccc3)CC2)c(C)n1,5992,8,0,9,5,-2,2.5
CN(C)c1oc(-c2ccccc2Cl)nc1C#N,10580,-1,8,0,4,-22,7.6
COc1ccc(NC(=S)NCc2ccc(S(N)(=O)=O)cc2)cc1OC,4666,4,10,0,5,-20,6.0
CCOC(=O)N1CCN(C(=O)c2ccc(Oc3ccc([N+](=O)[O-])cc3)cc2)CC1,4296,11,16,15,11,-107,-1.1
COc1ccc(NS(=O)(=O)c2ccc(NS(C)(=O)=O)cc2)cc1,12530,14,-1,-12,-2,-12,-3.2
COc1ccccc1NC(=O)CCn1c(=O)sc2ccccc21,12437,1,5,15,4,-35,1.0
COC(=O)COc1c(Cl)cc(Cl)c2ccc(C)nc12,3870,4,0,13,6,-26,16
COc1ccc(NC(=O)c2sc(N3CCOCC3)nc2-c2ccccc2)c(OC)c1,1919,14,-6,7,5,-8,-2.5
CN(C(=O)c1ccc(C#N)cc1)c1nnc(-c2cnccn2)s1,4860,20,0,-3,2,-11,4.2
CC1CCN(c2nc3c(cc2C#N)COC(C)(C)C3)CC1,3700,8,5,4,-3,-18,9.1
COc1cc(Cl)ccc1OCc1cc(C(=O)NCC(C)c2ccccc2)no1 (configuration not stated),6359,-12,0,0,6,-11,4.4
CCC(COC)NCc1cn(-c2ccc(F)cc2F)nc1-c1ccccc1C (configuration not stated),5239,3,-1,10,-3,-46,3.4
Cc1cccc2c(Cl)cc(=O)[nH]c12,.,1,7,2,6,.,6.9
Cc1csc(SCC(=O)NC23CC4CC(CC(C4)C2)C3)n1,3037,-3,-13,12,11,-23,4.7
N#C/C(=C\c1c(N2CCOCC2)nc2ccccn2c1=O)S(=O)(=O)c1ccccc1,2084,0,10,.,.,-13,9.4

# Screening results (PubChem BioAssay)
